Screening data as filed in PubChem BioAssay.
CBX7 inh – inhibitors of human CBX7 binding to H3K27me3 peptide. O95931. AlphaScreen His6-CBX7 / biotin-H3K27me3 peptide binding; active compounds read low. normalised signal (fraction of DMSO) (test concentration not listed). 1.1% of 66,000 active. AID 1224903; in the data active means normalised signal below about 0.5;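 further: 100 nL library stock added to about 20 µL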
Target sequence (O95931 whole entry, looked up): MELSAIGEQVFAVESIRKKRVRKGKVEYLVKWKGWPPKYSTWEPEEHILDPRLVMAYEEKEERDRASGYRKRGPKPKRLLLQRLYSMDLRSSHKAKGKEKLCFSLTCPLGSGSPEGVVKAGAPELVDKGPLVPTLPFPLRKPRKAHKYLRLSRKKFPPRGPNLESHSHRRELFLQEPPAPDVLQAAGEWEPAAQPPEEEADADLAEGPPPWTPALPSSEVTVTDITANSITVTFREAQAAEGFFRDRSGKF
CBX7 inh z-score – second read-out of CBX7 inh, no call of its own (marks repeat the call); z-score; measured here: z-score of CBX7 signal; some inactives read as strong as hits; reference of the scale not given here;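 same signal on another scale; lower means less binding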
* hit, by the source's call; & = joins results of further samples.

Every second line gives: CBX7 inh	CBX7 inh z-score
- Clc1ccc(-c2cn3c4ccccc4nc3n2CCCN2CCOCC2)cc1
  0.99	-0.092
- CC(C)NCC(O)Cn1c2ccc(Cl)cc2c2cc(Cl)ccc21 (centres undefined)
  1.4	2.4
- Cc1nc2cc(-c3cccc(F)c3)nn2c(C)c1CCC(=O)N1CCC(Cc2ccccc2)CC1
  1.1	2.1
- Cc1cc2cc(CCNC(=O)CCC3CCCC3)c(=O)[nH]c2cc1C
  1	0.57
- COc1ccc(-c2csc(N3CCn4c5c(c6cc(C)ccc64)CCCC53)n2)cc1OC (centres undefined)
  0.75	-6.2
- CCc1nnc(NC(=O)CSc2nc(-c3ccccc3)c(-c3ccccc3)o2)s1
  1	0.047
- COc1cc2c(C(=O)Nc3ccc4c(c3)OCO4)cn(C)c(=O)c2cc1OC
  1.1	1.5
- CCN(CC)CCCNC(=O)C1CCN(C(=O)c2cc3sccc3n2Cc2ccc(F)cc2)CC1
  1.1	2.9
- O=C(Nc1cccc(Cl)c1)c1cc(-c2ccc(O)cc2)on1
  1.1	2
- O=C(Nc1ccccc1Oc1ccccc1F)c1ccc(Br)cc1
  1.2	9.2
- CCOC(=O)c1cnc2c(C)cc(Cl)cc2c1NCCc1ccc(OC)c(OC)c1
  1.2	4.6
- CC(=O)NC(CCS(C)(=O)=O)C(=O)Nc1ccc(F)cc1F (centres undefined)
  1	0.83
- Cc1ccccc1Cc1c(C)nc2nc(SCC(=O)NC(C)(C)C)nn2c1C
  1	0.4
- O=C(CN1C(=O)COc2cc(S(=O)(=O)N3CCCC3)ccc21)NCc1cccnc1
  1.1	1.1
- Cc1nccc2[nH]c(=O)c(C(=O)NCCCN3CCCC(C)C3)cc12 (centres undefined)
  1.1	2
- COc1ccc(CNC(=O)c2cc(=O)[nH]c3ccc(S(=O)(=O)N4CCCC4)cc23)c(OC)c1
  1.1	2.1
- Cc1ccc(CCNC(=O)CC2Oc3ccccc3NC2=O)cc1 (centres undefined)
  1	0.35
- O=C(NCCc1ccccc1)C1CCN(c2nc3ccccc3o2)CC1
  1.1	0.064
- Cc1c(Cl)cccc1NC(=O)CSc1nc2ccc(N)cc2s1
  0.88	-1.3
- CCOC(=O)c1ccc(NC(=O)CSc2nccn2-c2cc(C)cc(C)c2)cc1
  0.97	-0.034
- Cc1ccc(-c2nc(C(=O)NCCCOC(C)C)c(C)o2)cc1
  1	0.37
- NC(=O)C1(c2ccccc2)CCCN1C(=O)c1ccccc1Br (centres undefined)
  1	0.2
- CCC(C)NC(=O)c1c[nH]c2ccc(S(=O)(=O)N(C)c3cc(C)ccc3C)cc2c1=O (centres undefined)
  1.1	0.47
- CCOC(=O)c1c(C)n(CCNC(C)=O)c2cc(Br)c(OC)cc12
  1.1&0.95	1&-2.2
- CN1CCSc2ccc(C(=O)Nc3ccc(Cl)cc3)cc21
  0.91	-1.3
- Cc1ccc2nc(-c3ccc(NC(=O)c4cccc(F)c4)cc3)sc2c1
  1.1	2.2
- COc1ccccc1NC(=O)Cn1cnc2ccc(S(=O)(=O)N3CCC(C)CC3)cc2c1=O
  1.1	1.2
- CC(=O)N1c2ccc(S(=O)(=O)NCCc3ccc(Cl)cc3)cc2CC1C (centres undefined)
  1	1.6
- COc1ccc(C2=NOC(C(=O)NC3CCCC3)C2)cc1OC (centres undefined)
  1	0.54
- Cc1ccc(-c2nnc(Nc3ccc(F)cc3)c3ccccc23)cc1S(=O)(=O)NCc1ccccn1
  0.95	-0.26
- CC(C)(C)C1CCC(=O)C(C2(O)C(=O)Nc3ccccc32)C1 (centres undefined)
  1	1.5
- COc1cccc(C(=O)Nc2c3c(nn2-c2cc(C)cc(C)c2)CSC3)c1OC
  0.97	-0.68
- Cc1cc(C)c2c(N)c(C(N)=O)sc2n1
  1	0.52
- CC(=O)Nc1nonc1-n1cc(-c2ccccc2)nn1
  1	1.1
- O=C(Nc1ccc2oc(-c3ccc(Cl)c(Cl)c3)nc2c1)c1cc2ccccc2o1
  0.85&0.8	-1.9&-3.4
- Cc1ccccc1CN1CCN(CC(=O)NCCCSC2CCCCC2)C1=O
  0.9	-2.1
- CCCN(C(=O)Cn1ncc2c1-c1ccccc1OC2)c1cccc(C)c1
  0.83	-4.9
- CCC(=O)N1CCc2cc(S(=O)(=O)NC3CCCCCC3)ccc21
  1.2	1.8
- CCCCN(C)S(=O)(=O)c1ccc2c(c1)CCN2C(=O)C1CC1
  1.3	1.2
- O=C(Nc1nc2ccccc2[nH]1)C1CC1c1ccccc1 (centres undefined)
  0.96	-1.1
- CCc1ccc(-c2nc(CN3CCCC(C(=O)NCC4CCCO4)C3)c(C)o2)cc1 (centres undefined)
  0.97	-0.33
- O=C(CC(C(=O)N1CCc2ccccc21)n1ccnc1)NCCCN1CCCCC1 (centres undefined)
  0.99	-0.54
- CCOc1ccccc1NC(=O)C1CCN(S(=O)(=O)c2cccnc2)CC1
  0.99	-0.18
- Clc1ccc(-n2ncnc2-c2ccc(Br)cc2)cc1
  1	0.12
- COc1ccccc1-n1c(C)nc2cc(C(=O)O)ccc21
  1	0.37
- CC1CCN(c2nnc(-c3cccs3)c3ccccc23)CC1
  0.58	-0.47
- COc1ccc(CC(=O)Nc2c3c(nn2-c2ccccc2C)CSC3)cc1OC
  0.95	-2.6
- Cc1ccc2cc(CCNC(=O)CCCc3ccccc3)c(=O)[nH]c2c1
  1	1.4
- COc1ccc2c(c1)CCc1sc(NC(=O)c3ccc(Br)cc3)nc1-2
  1.2	2.6
- Cc1ccccc1NC(=O)[C@H](CSCc1ccccc1)N1Cc2ccccc2C1=O
  0.88	-2.7
- COc1ccc(C2CC(=O)C3=C(C2)Nc2ccccc2NC3c2cccc(O)c2)cc1 (centres undefined)
  1	0.48
- CCN(C(=O)c1cn(CC)c(=O)c2cc(OC)c(OC)cc12)c1ccccc1C
  0.97	-0.14
- O=C(CSc1nnc(Cc2cc(=O)[nH]c(=O)[nH]2)n1-c1ccc(F)cc1)N1CCCCCC1
  0.98	-0.45
- Cc1cccc(CSc2nc3ccncc3n2CC(=O)Nc2ccc(C)c(C)c2)c1
  1	0.14
- Cc1c(C(=O)NCCC2=CCCCC2)oc2ccc(S(=O)(=O)N3CCCC3)cc12
  0.99	-0.44
- Cc1c(C(=O)NC(C)c2ccccc2)sc2ncnc(N3CCN(c4ccccn4)CC3)c12 (centres undefined)
  0.93	-1.9
- Cc1cc(C)cc(NC(=O)c2cnn(-c3ccc(F)cc3)c2C2CCNCC2)c1
  0.99	-0.48
- O=C(C1c2ccccc2C(=O)N2CCc3ccccc3C12)N1CCN(c2cccc(C(F)(F)F)c2)CC1 (centres undefined)
  0.99	-0.12
- Fc1ccc(-n2cc(-c3ccccc3)c3c(Nc4cccc(F)c4)ncnc32)cc1
  1.1	1.5
- Cc1cc(=O)n2nc(N3CCC(C(=O)NCCN4CCOCC4)CC3)sc2n1
  1.2	2.2

Next structures follow:
| Structure | CBX7 inh | CBX7 inh z-score |
| --- | --- | --- |
| CCCc1nc2ccccc2n1CC(O)COc1ccccc1Cl (centres undefined) | 0.92 | -0.52 |
| CCCc1ccc(OCC(=O)Nc2sc3c(c2C(=O)OC)CCCCC3)cc1 | 1.1 | 0.066 |
| NS(=O)(=O)c1ccc(N2C(=O)C3C4c5ccccc5C(c5ccccc54)C3C2=O)cc1 (centres undefined) | 0.99 | -0.25 |
| O=C(CN1C(=O)COc2ccccc21)NCCN1CCc2ccccc2C1 | 1.1 | 1.8 |
| COC(CNC(=O)C1CCN(C(=O)c2cc3sccc3n2C)CC1)OC | 0.93 | -0.9 |
| CCC(C(=O)Nc1cccc(OC)c1)n1c(SCc2ccccc2F)nc2ccncc21 (centres undefined) | 0.98 | -0.79 |
| CCOC(=O)c1nc(Nc2cccc(Cl)c2)c2ccccc2n1 | 1 | 0.71 |
| O=C(NCCc1ccc(Cl)cc1)C1CCN(C(=O)c2sccc2-n2cccc2)CC1 | 0.93 | -3 |
| O=C(Cn1nc(Cc2cccnc2)c2ccccc2c1=O)Nc1ccc2c(c1)OCO2 | 1.1 | 0.88 |
| CCOC(=O)c1c(CNc2ccccc2C(N)=O)n(C)c2cc(Br)c(OC(C)=O)cc12 | 0.98 | -0.4 |
| Cc1ccccc1OCc1nc(-c2ccccc2)no1 | 1.8 | 7.5 |
| CCN(CCCNS(=O)(=O)c1cc(Br)cc2c1N(C(C)=O)CC2)c1cccc(C)c1 | 0.74 | -2.6 |
| O=C(Nc1ccccc1C(=O)N1CCOCC1)c1cccc(S(=O)(=O)N2CCOCC2)c1 | 0.99 | -0.062 |
| O=c1nc(/C=C/c2ccccc2C(F)(F)F)cc(C(F)(F)F)[nH]1 | 1.1 | 3.2 |
| COc1ccc(C2CC(=O)N(CC(=O)NCc3ccccc3Cl)c3ccccc3S2)cc1 (centres undefined) | 1 | -0.058 |
| COc1ccc(CN(C(=O)c2cccs2)C2CCS(=O)(=O)C2)cc1 (centres undefined) | 0.95 | -0.052 |
| CCCC1=Nc2cc(C(=O)NCc3ccc(C)cc3)ccc2Sc2ccccc21 | 0.86 | -2 |
| Cc1ccccc1Nc1cc(C(=O)NC2CCCCC2)c2ccccc2n1 | 0.85 | -2.4 |
| CCOc1ccc(-c2nnc(OC)c3ccccc23)cc1 | 0.97 | -0.63 |
| Brc1cc(-c2ccccc2)ccc1OCc1cn2cccnc2n1 | 1.1 | 1.2 |
| CCCOc1ccc(N2C(=O)CC(N3CCC(O)(c4ccc(Br)cc4)CC3)C2=O)cc1 (centres undefined) | 1&0.97 | 0.72&-0.58 |
| CC(NC(=O)c1ccc2nc(N3CCOCC3)sc2c1)C12CC3CC(CC(C3)C1)C2 (centres undefined) | 1 | 0.65 |
| CCOc1ccc(NC(=O)C2=CCN(S(=O)(=O)c3ccc(C)cc3)CC2)cc1 | 1.1 | 1.1 |
| COc1ccc(OCC(O)CN2CCCCCC2)cc1 (centres undefined) | 0.74 | -2.7 |
| Cc1ccc(Cl)cc1NC(=O)c1cnc2sccn2c1=O | 0.85 | -1.8 |
| Cc1ccc(-c2nnn(CC(=O)Nc3ccccc3F)n2)cc1 | 0.98 | -0.18 |
| COc1ccc(C(=O)NCCOc2ccccc2F)cc1OC | 0.96 | -0.51 |
| COc1ccc(Nc2cc(C)nc3ccc(Cl)cc23)cc1 | 0.94 | -0.076 |
| COc1ccc(CCN2C(=O)C3C(C2=O)C2C=CC3C23CC3)cc1OC (centres undefined) | 1 | 0.072 |
| COc1cccc(-c2nn(C)c3sc(C(=O)Nc4ccc(C)c(F)c4)cc23)c1 | 0.96 | -0.49 |
| Cc1c(C(=O)NCCC(C)C)oc2ccc(S(=O)(=O)N3CCOCC3)cc12 | 1.1 | 1.1 |
| O=C(c1ccccc1)c1ccc(-c2[nH]c(-c3cccc(F)c3)nc2-c2ccccc2)cc1 | 0.94 | -0.71 |
| Oc1ccc(Cl)cc1-c1nc2ccccc2s1 | 1.4 | 7.3 |
| CCCCN(CCCNC(=O)CC1Oc2ccc(C)cc2NC1=O)Cc1ccccc1 (centres undefined) | 1 | 1.1 |
| O=C(O)C1CCN(c2nc(-c3ccccc3)c3cc([N+](=O)[O-])ccc3n2)CC1 | 1 | 0.25 |
| O=C(CNC(=O)C1CCCCC1)Nc1nc(COc2ccccc2)cs1 | 1 | 0.45 |
| CCN(CC)S(=O)(=O)c1ccc2c(c1)N(CC(=O)NCCN(C)C1CCCCC1)C(=O)CO2 | 1 | 0.79 |
| Cc1ccc(-c2noc(CCC(=O)N3CCC(N4CCCCC4)CC3)n2)cc1 | 1.3 | 4.4 |
| CC(C)(C)C1CCc2oc3ccc(NS(=O)(=O)c4ccc(Br)cc4)cc3c2C1 (centres undefined) | 1.1 | 1.5 |
| CC1CCCCN1S(=O)(=O)c1ccc2[nH]c(=O)cc(C(=O)NCCN3CCCCCC3)c2c1 (centres undefined) | 1 | 0.38 |
| O=C(Cc1c(C(=O)O)[nH]c2ccc(Cl)cc12)NCCCN1CCC(Cc2ccccc2)CC1 | 1.1 | 1.5 |
| Cc1nn(C)c(C)c1S(=O)(=O)N(CC(=O)Nc1cccnc1)c1ccc(C(C)C)cc1 | 0.87 | -2.1 |
| CC(c1ccccc1)n1c(C2CC(=O)N(c3ccccc3)C2)nc2ccccc21 (centres undefined) | 0.84 | -1.7 |
| CCN(CC)S(=O)(=O)c1ccc2[nH]cc(C(=O)NCc3ccc(C)cc3)c(=O)c2c1 | 1 | 0.48 |
| Cc1ccccc1-n1c(=O)cc(N2CCCCCC2)[nH]c1=O | 1.1 | 1.5 |
| O=C(Cn1nc(Cc2ccncc2)c2ccccc2c1=O)N1CCC(N2CCCCC2)CC1 | 0.95 | -1.5 |

Some of the compounds tested; the hit share may differ from the screen's.
